Compound activity: PubChem, National Center for Advancing Translational Sciences (NCATS)
Cruzain noTriton – cruzain (T. cruzi) inhibition without detergent; purified cruzain, Z-FR-AMC fluorescence, no detergent; 200,000 compounds, 2.3% hits; Potency, µM, inactives show max response, negative = inhibition, most hits filed as inhibitors; active means well fitted curve in the direction sought with a large enough effect; inconclusive means small, poorly fitted or top-dose-only effect, or another doubt; inactive means no such curve, though single readings can be large; an effect the other way counts as inactive or inconclusive;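 further: plate controls were enzyme without inhibitor for no effect and buffer without enzyme for full effect; nearly all actives have a fitted effect of over 40% in size; top concentration of the series not given in the record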
Target sequence (P25779 123-467 limits assumed): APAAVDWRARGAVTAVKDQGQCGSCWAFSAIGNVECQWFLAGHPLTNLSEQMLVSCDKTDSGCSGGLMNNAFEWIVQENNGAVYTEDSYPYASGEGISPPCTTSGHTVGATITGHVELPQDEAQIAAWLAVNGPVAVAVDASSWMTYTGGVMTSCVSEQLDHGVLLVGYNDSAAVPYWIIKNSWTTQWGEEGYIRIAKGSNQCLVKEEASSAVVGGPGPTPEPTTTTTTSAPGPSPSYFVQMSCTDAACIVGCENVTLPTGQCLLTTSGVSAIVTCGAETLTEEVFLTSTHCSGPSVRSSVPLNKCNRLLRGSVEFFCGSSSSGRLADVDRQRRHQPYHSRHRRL
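Purified cruzain at 1.5 nM, pre-incubated 15 min with compound at room temperature in 100 mM sodium acetate pH 5.5, 5 mM DTT, 0.00005% Triton X-100. Reaction started with 2 uM Z-FR-AMC; AMC fluorescence increase over 60 s gives rate.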
Cruzain Triton – blocks cruzain activity in presence of Triton detergent | P25779 | purified cruzain, Z-FR-AMC fluorescence, 0.01% Triton | Potency, µM, without a hit: max response, negative = inhibition, most hits filed as inhibitors | 200,000 compounds, 0.43% hits | AID 1478; active means well fitted curve in the direction sought with a large enough effect; inconclusive means small, poorly fitted or top-dose-only effect, or another doubt; inactive means no such curve, though single readings can be large; an effect the other way counts as inactive or inconclusive;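 further: plate controls were neutral wells for no effect and buffer without enzyme for full effect; nearly all actives have a fitted effect of over 40% in size; top concentration of the series not given in the record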
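Sodium acetate buffer (100 mM, pH 5.5) containing 5 mM DTT and 0.01% Triton X-100 hosted 1.5 nM cruzain and test compound for 15 min at room temperature. Cleavage of 2 uM Z-FR-AMC was then tracked by fluorescence.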
StopGo reporter – FMDV 2A StopGo reporter, luciferase signal | human cells with a luciferase reporter of 2A StopGo recoding; control for the full effect not named in the record | Potency, µM (titrated, usually from 57.9 µM), without a hit: at the top dose signal change, negative = less light | 410,000 compounds, 1.2% hits | AID 1159524; active = well fitted falling curve with a large enough effect; inconclusive = small, poorly fitted or top-dose-only effect; inactive = no such curve, though single readings can be large or run the other way; tested in HEK293T cells; further: on the % scale 0 is the no-effect control and ±100 the full control effect; nearly all actives have a fitted effect of over 45% in size; luciferase light after 4 h
LASV entry inh – Lassa virus entry inhibition. Potency, µM (doses to about 37.9 µM), without a hit: top-dose activity change, negative = inhibition, most hits filed as inhibitors. 300,000 compounds, 1.2% hits. Lassa virus pseudotype entry inhibition, cell reporter; control for the full effect not named in the record; active means well fitted inhibition curve with a large enough effect; inconclusive means small, poorly fitted or top-dose-only effect, or effect the other way; inactive means flat fitted curve, though single readings scatter; tested in HEK293 cells; further: on the % scale 0 is the no-effect control and ±100 the full control effect; nearly all actives have a fitted effect of over 50% in size; luciferase read-out
NS1 function inh – influenza NS1 inhibition. Potency, µM (doses to about 46.1 µM), inactives show at the highest dose activity, positive = more growth. S. cerevisiae slowed by influenza A NS1, growth recovery by OD600. AID 2326. 270,000 compounds, 0.4% hits; further: actives are rising curves; nearly all actives have a fitted effect of over 50% in size
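A cell-based growth assay was used: compounds that relieve NS1-induced slow growth of budding yeast raise OD600. Assay medium was yeast nitrogen base with ammonium sulphate and -URA supplement, pH 6.0, with 2% galactose.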
RE007 growth inh – less growth of the S. pombe RE007 Vpr strain; Potency, µM (series often up to 92.2 µM), for the others: at the top dose activity change, negative = less growth; 360,000 compounds, 0.21% hits; AID 651644; S. pombe RE007 Vpr strain, BacTiter-Glo ATP luminescence, 24 h; control for the full effect not named in the record; active = well fitted falling curve with a large enough effect; inconclusive = small, poorly fitted or top-dose-only effect; inactive = no such curve, though single readings can be large or run the other way;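 further: on the % scale 0 is the no-effect control and ±100 the full control effect; nearly all actives have a fitted effect of over 50% in size; the assay follows cell death caused by Vpr and the record does not say whether a fall means rescue or toxicity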
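Fission yeast strain RE007, carrying one chromosomally integrated HIV-1 vpr copy, was seeded at OD 0.01 in PMG+AL medium with 23 nL pinned compound. After 24 h at 30 °C and 99% humidity, viability was read by BacTiter-Glo luminescence.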
MARV entry inh – blocks Marburg virus binding to or entry into cells; Marburg virus pseudotyped entry inhibition, cell reporter; control for the full effect not named in the record; about a third of the inactives were read at about 46 µM; 300,000 compounds, 1.8% hits; Potency, µM (series often up to 37.8 µM), for the others: top-dose activity change, negative = inhibition, usual class: inhibitors; active = well fitted inhibition curve with a large enough effect; inconclusive = small, poorly fitted or top-dose-only effect, or effect the other way; inactive = flat fitted curve, though single readings scatter; tested in HEK293 cells; about a fifth of its hits are not listed in these tables; further: on the % scale 0 is the no-effect control and ±100 the full control effect; luciferase read-out
SARS PLP yeast – blocks SARS-CoV papain-like protease in a yeast assay. Potency, µM (top dose mostly 32.9 µM), without a hit: top-dose activity, positive = growth rescue. 330,000 compounds, 0.19% hits. S. cerevisiae expressing SARS-CoV PLpro, growth rescue; control for the full effect not named in the record; further: 0% is about no effect; nearly all actives have a fitted effect of over 55% in size; growth read by luminescence after 48 h
An asterisk follows results filed as active; ? = inconclusive; nt = not tested or not shown; & = joins results of further samples; [ ] = remark or other dose. Unless noted, the call rests on the fitted dose curve; in most records, active means well fitted rising curve with a large enough effect; inconclusive means small, poorly fitted or top-dose-only effect; inactive means no such curve, though single readings can be large or run the other way. Potency means the concentration at half of the fitted maximal effect.

SMILES	Cruzain noTriton	Cruzain Triton	StopGo reporter	LASV entry inh	NS1 function inh	RE007 growth inh	MARV entry inh	SARS PLP yeast
COc1ccc(C(=O)NCc2nnc(SCC(=O)NC3CCCCC3)o2)cc1	nt	nt	-2%	1%[46.1 µM]	5%	2%	-5%[46.1 µM]	-1%
CC(C)(C)c1ccc(OCCC(=O)OCC(=O)NCc2ccccc2)cc1	nt	nt	?	1%	nt	3%	-4%	3%
CCN(C(=O)Cn1cc(S(=O)(=O)N2CCN(c3ccccc3F)CC2)c2ccccc2c1=O)c1ccc(C)c(C)c1	-2%	-1.1%	1%	-6%[46.1 µM]	nt	nt	?	nt
CCN(CC)c1ccc(C(=O)c2cnc(/N=C/N(C)C)s2)cc1	nt	nt	1%	3%	nt	3%	26%[46.1 µM]	-6%
Cc1ccc(C(C)C)c(OCC(=O)Nc2ccc3c(c2)nc(CCNC(=O)c2ccco2)n3C)c1	-13%	-3.1%	-17%	19%[46.1 µM]	nt	nt	12%[46.1 µM]	nt
O=C(c1cnn2c(C(F)F)cc(-c3ccccc3)nc12)N1CCc2ccccc2C1	nt	nt	?	?	-40%	6%	?	-3%
Cc1cccc(C)c1NC(=O)CCCN1CC(C)OC(C)C1 (centres undefined)	11%	-0.8%	-5%	-1%	4%	5%	1%	6%
Nc1ncc(-c2ccccc2)c(-c2ccc(OCc3ccccc3)cc2O)n1	nt	nt	-27%	?	5%	-6%	-29%	-1%
O=C(Nc1c(C(=O)N2CCN(c3ccccn3)CC2)oc2ccccc12)c1ccc([N+](=O)[O-])cc1	nt	nt	31%[activator]	nt	-5%	-1%	nt	-1%
COCC(=O)N1CCC(Oc2ccc(C(=O)NC(C)c3nc(C)sc3C)cc2)CC1 (centres undefined)	nt	nt	25%	-18%[46.1 µM]	-6%	-2%	2%[46.1 µM]	3%
Cc1n[nH]c(C)c1S(=O)(=O)N1CCCC(C(=O)N2CCN(c3ccc(Cl)cc3)CC2)C1 (centres undefined)	?	-1.2%	20µM*	?	3%	-1%	?	5%
CC(=O)Nc1ccc(/C(C)=N/Nc2nc(Nc3ccccc3)nc(N3CCOCC3)n2)cc1	nt	nt	-22%	?	2%	-6%	?	-1%
CCS(=O)(=O)N1CCN(c2ccc([N+](=O)[O-])c(NCC3CCCO3)c2)CC1 (centres undefined)	nt	nt	-15%	-13%	2%	4%	-25%[46.1 µM]	1%
CCN1CCN(C(=O)C2CCN(c3nnc(-n4c(C)ccc4C)s3)CC2)CC1	nt	nt	-16%	nt	-4%	6%	nt	-1%
CC1CC(=O)Nc2ccccc2N1C(=O)Nc1ccccc1 (centres undefined)	nt	nt	-22%	-3%	2%	7%	9%[14.2 µM]	1%
COc1cc(OC)cc(-c2nc3nc(C)c(CCC(=O)Nc4ccc(C)c(C)c4)c(C)n3n2)c1	-3%	-0.4%	-17%	-1%[46.1 µM]	nt	nt	22%[46.1 µM]	nt
COC(=O)c1ccc2c(=O)n(Cc3ccc4c(c3)OCO4)c(SCC(=O)N3CCCC3)nc2c1	nt	nt	27%	nt	-26%&-5%	6%	nt	0%
CSc1c(CC(=O)NCCO)n(C)c2ccccc12	3%	0.4%	nt	5%	-8%	-2%	6%	-16%
CCCCCCC1CC(CCC(=O)Nc2ccc([N+](=O)[O-])cc2)C(=O)O1 (centres undefined)	?	-2.1%	-13%	-3%	-8%	-1%	14%	11%
CCCCOP(=O)(c1ccc(N(C)C)cc1)C(Nc1ccccc1)c1ccccc1 (centres undefined)	14%	-8.1%	-22%	?	-9%	5%	?	-75%
Cc1ccc(NC(=O)CCC(=O)NNC(=O)COc2ccc([N+](=O)[O-])cc2)cc1C	nt	nt	-12%	11%[46.1 µM]	-3%	7%	2%[46.1 µM]	-3%
CCOc1cc(C)c(Cl)cc1S(=O)(=O)N1CCCC1	-4%	-3.1%	-22%	14%	-8%	12%	-19%	-5%
CC1CCCCC1NC(=O)CN1CCC(O)(c2ccc(F)cc2)CC1 (centres undefined)	3%	4.0%	nt	-7%	-12%	11%	-2%	0%
COc1ccc(/C=N/Nc2cn[nH]c(=O)c2Cl)cc1	nt	nt	28%	-4%[46.1 µM]	nt	-4%	20%[46.1 µM]	1%
COc1ccc(CCNc2nc3ccccc3c3nc(-c4cccc(C)c4)nn23)cc1OC	5%	-2.9%	12%	nt	nt	nt	14%[46.1 µM]	nt
CCOC(=O)c1cnc(-n2nc(C)cc2C)nc1NNc1nc(-c2ccccc2)cc(-c2ccccc2)n1	20µM*	-0.8%	0%	?	?	4%	?	6%
O=c1c(/C=N\NS(=O)(=O)c2ccccc2)coc2ccc(Cl)cc12	nt	nt	-14%	-7%[46.1 µM]	-25%	-4%	-6%[46.1 µM]	-4%
CCCCn1c2nc3ccccc3nc2c2c(=O)n(-c3ccccc3)cnc21	18%	-5.5%	-29%	-2%	10%	-9%	?	18%
COc1ccc(-c2cn3cccnc3n2)cc1NS(=O)(=O)c1ccccc1	nt	nt	14%	-7%[46.1 µM]	nt	12%	6%[46.1 µM]	-2%
CCOC(=O)C1C(=O)C(C(C)=O)C(=O)CC1CC(C)SCC (centres undefined)	12%	3.4%	nt	21%	-81%	8%	0%	-18%
CN1C(=O)C(=O)/C(=C(/O)c2ccc(Br)cc2)C1c1ccc(F)cc1 (centres undefined)	nt	nt	2%	nt	9%	-5%	nt	2%
COC(=O)C1=C(C)NC=C([N+](=O)[O-])C1c1ccc(OC)cc1 (centres undefined)	7%	-4.6%	-7%	1%[46.1 µM]	2%	-14%	-23%	4%
Cc1cccc(C)c1NC(=O)C(NS(=O)(=O)c1cccs1)c1ccccc1 (centres undefined)	?	-3.2%&-0.5%	-6%&-20%	2%[46.1 µM]	5%	20%	?	9%
O=C1COc2ccc(C(=O)COC(=O)c3ccc4ccccc4n3)cc2N1	-19%	1.2%	2%	2%	-2%	2%	15%	0%
CC(OC(=O)CNC(=O)c1cccc(F)c1)C(=O)NC1CCCCC1C (centres undefined)	nt	nt	14%	20%	nt	1%	26%	-2%
Cc1ccc(C2=NN(C(=O)CCC(=O)O)C(c3cccc([N+](=O)[O-])c3)C2)cc1 (centres undefined)	nt	nt	-14%	-1%[46.1 µM]	27%	1%	2%[46.1 µM]	13%
O=C(CCc1nnc(Cc2ccc(-c3ccccc3)cc2)o1)N1CCCC1	nt	nt	-16%	?	-1%	1%	?	0%
CN1OC(c2ccccc2)=C(CO)C1c1ccccc1 (centres undefined)	4%	-0.2%	-2%	-1%	-9%	1%	-29%	6%
COc1ccc(NC(=O)C2C3CCC4C(CCC32)C4(Cl)Cl)cc1 (centres undefined)	25µM*	2.5%	-7%	-8%	7%	-13%	15%	-15%
Cc1ccccc1CNCc1ccc2c(c1)OCO2	nt	nt	-13%	nt	6%	-9%	nt	1%
COc1nc(OC)nc(Oc2ccc([N+](=O)[O-])cc2Cl)n1	9%	1.6%	-26%	12%	-17%	-11%	?	12%
COc1ccccc1NS(=O)(=O)c1ccc(NC(=O)CCNC(=O)c2ccco2)cc1	-6%	4.2%	12%	2%	0%	-14%	4%	-10%
Cc1onc(-c2c(Cl)cccc2Cl)c1/C(N)=N/OC(=O)C(C)(C)C	nt	nt	-14%	?	-4%	9%	6%	-3%
O=C(c1cccc(C(F)(F)F)c1)N(c1ccccn1)C1CCCCC1	nt	nt	10%	-14%[46.1 µM]	nt	-2%	?	-1%
CC(=O)Nc1ccc(S(=O)(=O)NCC(=O)OCC(=O)N2CCCc3ccccc32)cc1	-1%	-5.9%	3%	-12%	9%	-15%	?	5%
CC(=O)Nc1ccc(C2=NN(Cc3nnc(-c4ccccc4)o3)C(=O)SC2)cc1	?	-7.7%	6%	?	?	13%	26%	1%
COc1ccc(NC(=O)NN(C(=O)c2ccccc2)C(C)(C)C)cc1	6%	-0.4%	-7%	-2%	8%	-4%	?	-1%
CCOC(=O)c1cnc(SCC(=O)N2CCC(C(N)=O)CC2)nc1N	nt	nt	17%	11%	5%	17%	?	1%
COc1ccc(Cc2nnc(NC(=O)CS(=O)(=O)c3ccccc3)s2)cc1OC	nt	nt	-4%	14%[46.1 µM]	15%	7%	17%[46.1 µM]	11%
COc1ccccc1C(=O)COC(=O)c1cnc(C)cn1	nt	nt	6%	-13%	nt	2%	7%	4%
CC(C)CNC(=O)CN(C1CCCCC1)S(C)(=O)=O	-4%	4.7%	-15%	-3%	1%	1%	-1%	4%
COc1cc(NC(=O)c2ccc([N+](=O)[O-])o2)ccc1NC(=O)c1cccs1	nt	nt	-7%	?	nt	0%	?	0%
COC(=O)[C@@]1(Cc2ccc(F)cc2)[C@H]2c3cc(C(=O)N(C)C)n(Cc4ccsc4Br)c3C[C@H]2CN1C(=O)c1ccccc1	?	-1.1%	?	nt	nt	6%	nt	nt
O=c1[nH]c(N2CCOCC2)nc2ccccc12	nt	nt	-2%	nt	24%	-8%	nt	-3%
O=C(Cc1ccc(Cl)c(Cl)c1)Nc1ccccc1N1CCOCC1	nt	nt	?	-7%	nt	-14%	?	1%
COC(=O)c1ccc(N2CCN(C(=O)c3ccccc3)CC2)c(NC(C)=O)c1	nt	nt	-1%	3%	-1%	8%	3%[46.1 µM]	0%
CCC(=O)Nc1ccc2nc(C3CC3)n(Cc3ccccc3)c(=O)c2c1	-3%	0.8%	60%[activator]	?	?	14%	14%[46.1 µM]	1%
CC(=O)Nc1ccccc1NC(=O)c1ccc(C)cc1C	nt	nt	-2%	-4%	1%	-8%	?	-1%
Cc1cccc(NC(=O)c2oc3ccc(S(=O)(=O)N4CCCCC4)cc3c2C)c1C	-10%	1.8%	?	7%[46.1 µM]	nt	nt	nt	nt
COc1ccc(CNCc2c(C(=O)O)c(C)n(Cc3ccccc3C)c2C)cc1OC	13%	-2.1%	13%	-5%[46.1 µM]	nt	nt	-16%[46.1 µM]	nt
COc1ccccc1NC(=O)CSc1nc2ccccc2nc1N1CC(C)OC(C)C1 (centres undefined)	nt	nt	0%	nt	?	8%	nt	-9%
CCOC(=O)c1cc(CC)sc1/N=C/c1c(O)ccc2ccccc12	-9%	-4.9%	-15%	?	2%	0%	-10%	-12%
